Source: PubChem BioAssay
Vaccinia Venus: inhibitors of vaccinia virus (Venus reporter); Vaccinia virus Venus reporter expression, fluorescence; Potency, µM (series often up to 36.5 µM), inactives show at the top dose activity change, negative = inhibition, hits mostly inhibitors; actives 0.46% (n = 330,000); active means well fitted inhibition curve with a large enough effect; inconclusive means small, poorly fitted or top-dose-only effect; inactive means no such curve, though single readings can be large or run the other way; tested in A549 cells; note: nearly all actives have a fitted effect of over 30% in size; inactives centre near -10
Vaccinia mCherry: vaccinia inhibition (mCherry reporter). Vaccinia virus mCherry reporter infection, fluorescence; about a quarter of the inactives have no number. Potency, µM (series often up to 36.5 µM), inactives show top-dose activity change, negative = inhibition, usual class: inhibitors. AID 720579. actives 0.63% (n = 310,000); active = well fitted inhibition curve with a large enough effect; inconclusive = small, poorly fitted or top-dose-only effect; inactive = no such curve, though single readings can be large or run the other way; tested in A549 cells; note: nearly all actives have a fitted effect of over 35% in size; inactives centre near -10
Active calls of the source: *; i = inactive; ? = inconclusive; nt = not tested or not shown; & = joins results of further samples; [ ] = dose if it differs, or a comment. % is set by controls: 0 for no effect and ±100 for the full control effect; potency is the fitted concentration of half-maximal effect. Hits appear at their usual frequency; any-hit rate near 0.86%.

Values run as follows: Vaccinia Venus, Vaccinia mCherry
O=C(Cn1c(=O)n(Cc2ccc(C(=O)NCc3ccccc3Cl)cc2)c(=O)c2ccccc21)Nc1ccc(F)cc1
→ -9%, -10%
COc1cccc(CNCc2ccccc2Br)c1OC
→ -24%, -8%
COc1cc(/C=N/Nc2nncn2/N=C/c2ccc(O)c(OC)c2)ccc1O
→ -15%, -12%
Cc1cc(C)cc(Nc2ncnc3c2nc2n3CCCC2)c1
→ -23%, -9%
O=C(c1nc2ccccn2c1CNCC1OCCc2ccccc21)N1CCOCC1 (stereo not given)
→ -7%, -19%
COc1ccc(C(=O)C[n+]2ccc(Cl)c3ccc(Cl)cc32)cc1
→ -12%, 27%
Cc1ccc(NC(=O)c2ccc3oc(=O)c(S(=O)(=O)c4ccccc4)cc3c2)cc1C
→ -14%, -14%
Cc1ccc(C(C(=O)NC2CCCC2)N(C(=O)Cc2cccs2)c2ccc3c(c2)OCCO3)cc1 (stereo not given)
→ -21%, -6%
CCNC(=O)COc1cccc(C(=O)NCc2ccccc2)c1
→ -4%, -12%
COC(=O)c1ccc(CNC(=O)c2ccc(OC)c(S(=O)(=O)NC3CC3)c2)cc1
→ -13%, -23%
COc1ccc(-n2c(SCCC(=O)O)nnc2-c2ccncc2)cc1
→ -30%, nt
CCCS(=O)(=O)NCCc1sc2nc(-c3ccc(Cl)cc3)nn2c1C
→ ?, ?
CCN(C(=O)CCS(=O)(=O)c1ccc(Br)cc1)c1ccc2c(c1)OCO2
→ -16%, nt
O=C(CN1C(=O)c2cccc3cccc(c23)C1=O)N1CCN(Cc2ccc3c(c2)OCO3)CC1
→ -6%, ?
CCOc1ccc(N2C(=O)CC(n3nc(C)cc3C)C2=O)cc1 (stereo not given)
→ -11%, nt
CCCN(CC(=O)Nc1ccc(NC(C)=O)cc1)CC(=O)Nc1ccc(F)c(F)c1F
→ -12%, -3%
O=C(Nc1ccccc1N1CCCC1)c1cc(=O)[nH]c2ccccc12
→ -13%, -19%
O=C(NC1CCCC1)c1nc(-c2c(F)cccc2F)oc1-c1ccccc1
→ -2%, ?
O=[N+]([O-])c1ccc(CNCc2cc(Cl)ccc2O)cc1
→ -21%, -21%
CC(C(=O)NC1CC1)c1ncc(C(F)(F)F)cc1Cl (stereo not given)
→ 2%, -8%
Cc1ccccc1-n1c(SCC(=O)Nc2ccc(Cl)cc2Cl)nc(O)cc1=O
→ 0%, -1%
NC(=O)c1ccsc1NC(=O)COC(=O)[C@@H]1CCCN1C(=O)c1cccs1
→ -6%, -14%
COc1ccc(CN2C(=O)CCC2(C)c2nnnn2-c2c(C)cccc2C)cc1OC (stereo not given)
→ -12%, -14%
Cc1cccc(OCC(=O)Nc2ccc(N3CCCC3)cc2)c1C
→ -4%, i
CC(=O)c1cnn(-c2ccc(Cl)c(Cl)c2Cl)c1C
→ 0%, i
CC1=C(C(=O)Nc2ccccc2Br)C2(CCC(C)CC2)OC1=O (stereo not given)
→ -17%, i
Brc1ccc(-c2nnc3n2-c2ccccc2CC3)cc1
→ -3%, -10%
Cc1c(C(=O)NCCC#N)sc(=O)n1Cc1ccccc1F
→ 5%, 9%
CCOC(=O)CC(NS(=O)(=O)c1ccc(OC)c(OC)c1)c1cccc([N+](=O)[O-])c1 (stereo not given)
→ -5%, -7%
COCOc1cccc(CN2CCC(C)(Oc3ccc(SC)cc3)C2)c1 (stereo not given)
→ -14%, 22%
O=C1CCN=C(Nc2ccc(F)cc2)N1Cc1ccccc1
→ -21%, -16%
CC(C)c1ccc(C(=O)NCCCN2CCN(CCCNC(=O)c3ccc(C(C)C)cc3)CC2)cc1
→ ?, -1%
COc1ccccc1N(C(=O)CNC(=O)c1ccco1)C(C(=O)NC1CCCCC1)c1ccncc1 (stereo not given)
→ 4%, -2%
Cc1ccc2c(c1)c(-c1ccccc1)nc1nncn12
→ -14%, -2%
COC(=O)c1ccsc1NC(=O)CSc1nnnn1Cc1ccccc1
→ -26%, nt
O=C(C1CCC(=O)N(C2CCCC2)C1)N1CCN(Cc2cccc(Cl)c2)CC1 (stereo not given)
→ -10%, -17%
O=S(=O)(/N=C(\c1ccc(Cl)cc1)N1CCOCC1)c1ccccc1
→ -9%, -12%
CC(C)(C)[C@H]1CCC(=O)N([C@H](CN=[N+]=[N-])Cc2ccccc2)CC1
→ -10%&-21%, -6%
COc1ccc(NC(=O)C2(C)CCCN(C(C)=O)C2)cc1F (stereo not given)
→ 3%, 2%
O=c1cc(O)c(-c2ccc(Cl)c(Cl)c2)c(Cl)[nH]1
→ -15%, i
COc1cccc(NC(=O)CN(C)C(C)C(=O)Nc2ccc(S(=O)(=O)N3CCCC3)cc2)c1 (stereo not given)
→ -26%, -9%
N#Cc1ccccc1NC(=O)c1cccc(COc2ccc(Cl)cc2Cl)c1
→ -20%, -25%
COc1ccc(C(=O)COC(=O)c2ccc(-n3cnnn3)cc2)c(OC)c1
→ 10%, -21%
C[C@H](CO)N1C[C@H](C)[C@@H](CN(C)Cc2cccc(O)c2)OCc2cnnn2CCCC1=O
→ -11%, -17%
CCN(CC)CC(O)COc1ccccc1C(=O)CCc1ccccc1 (stereo not given)
→ -17%, i
Cn1ccc2cc(S(=O)(=O)N3CCCC(C(=O)NCc4ccccc4)C3)ccc21 (stereo not given)
→ -6%, -10%
CCC(C(=O)Nc1cc(OC)ccc1OC)n1c(C)c2cnn(-c3ccccc3)c(=O)c2c1C (stereo not given)
→ -2%, -14%
CCn1c(SCC(=O)Nc2ccccc2)nc2c1c(=O)n(C)c(=O)n2C
→ -2%, i
CCc1cccc(OCC(=O)Nc2ccc(S(=O)(=O)Nc3onc(C)c3C)cc2)c1
→ -4%, i
Cc1nc2sccn2c(=O)c1S(=O)(=O)N1CCN(c2cccc(C(F)(F)F)c2)CC1
→ -18%, -10%

Gathered by group, the compounds so far with a thiophene ring, fused or not
Values run as follows: Vaccinia Venus, Vaccinia mCherry
Cc1ccc(C(C(=O)NC2CCCC2)N(C(=O)Cc2cccs2)c2ccc3c(c2)OCCO3)cc1 (stereo not given)
→ -21%, -6%
NC(=O)c1ccsc1NC(=O)COC(=O)[C@@H]1CCCN1C(=O)c1cccs1
→ -6%, -14%
COC(=O)c1ccsc1NC(=O)CSc1nnnn1Cc1ccccc1
→ -26%, nt

Next structures
Values run as follows: Vaccinia Venus, Vaccinia mCherry
CC(=O)Nc1nonc1-c1nc2ccccc2n1Cc1ccccc1
→ -28%, -24%
COc1cc(Cc2nccc3cc(OC)c(OC)cc23)c(NC(C)=O)cc1OC
→ -16%, -2%
COc1ccccc1NC(=O)CN1CCN(CC(=O)Nc2cc(NC(C)=O)ccc2OC)CC1
→ ?, nt
CCn1c(CN2CCOCC2)nnc1SCC(=O)Nc1cccc(C)c1
→ -1%, -5%
CC(C)(C)Nc1nc(N2CCCC2)nc(N2CCCC2)n1
→ -14%, nt
Cc1ccc(-c2nnn(CC(=O)N(CC(=O)NC3CCCC3)c3ccccc3F)n2)o1
→ 3%, -5%
Cc1[nH]n(-c2ccccc2)c(=O)c1/C=N/N(c1ccccc1)c1ccccc1
→ -12%, ?
O=C(NC(Cc1ccccc1)C(=O)O)/C(=C\c1ccc(Br)cc1)NC(=O)c1ccc(Br)o1 (stereo not given)
→ -10%, -2%
CCOc1ccccc1Nc1cc(C)nc2nnnn12
→ -9%, -21%
Cc1ccc(-c2n[nH]c(=S)n2/N=C/c2ccc(C)o2)cc1
→ -10%, -14%
CN(C(=O)c1cccc(NC(=O)Cc2cccc(NC(=O)C3CCCN(C(=O)C4CCCC4)C3)c2)c1)C1CC1 (stereo not given)
→ 0%, -10%
CCOc1ccc(CNC(=O)C2CCN(S(=O)(=O)CC)CC2)cc1OC
→ -8%, i
Cc1cccn2c(NCc3ccc4c(c3)OCO4)c(-c3ccc(O)cc3)nc12
→ -16%, -11%
CCOc1ccccc1C(=O)NCC(=O)N(C)Cc1cccnc1
→ -16%, i
CCCNC(=O)C1CCN(S(=O)(=O)c2ccc(-c3nn[nH]n3)cc2)CC1
→ -3%, -3%
CCOc1ccc(CCNC(=O)c2ccc3c(c2)c(C)c(C)n3C)cc1
→ -13%, -11%
C/C(Cn1cnc([N+](=O)[O-])n1)=N\NC(=O)c1cccnc1
→ 0%, -2%
CN(CC(=O)Nc1cccc(F)c1)C(=O)c1ccccc1OCCOc1ccccc1
→ -26%, -28%
COc1ccc(N2C(=O)C3C(C2=O)C2C=CC3C23CC3)c(OC)c1 (stereo not given)
→ ?, ?
Cc1ccc(-n2c(C)nc3c(cnn3-c3ccc(F)cc3)c2=O)cc1C
→ 8%, -6%

Reprinted at random: 3 compounds from above.
Values run as follows: Vaccinia Venus, Vaccinia mCherry
CCOc1ccc(CCNC(=O)c2ccc3c(c2)c(C)c(C)n3C)cc1
→ -13%, -11%
CCOc1ccc(CNC(=O)C2CCN(S(=O)(=O)CC)CC2)cc1OC
→ -8%, i
CN(C(=O)c1cccc(NC(=O)Cc2cccc(NC(=O)C3CCCN(C(=O)C4CCCC4)C3)c2)c1)C1CC1 (stereo not given)
→ 0%, -10%

New compounds follow:
Values run as follows: Vaccinia Venus, Vaccinia mCherry
Cc1ccc(NC(=O)CN2C=NS(=O)(=O)c3ccccc32)c(C)c1
→ -6%, -7%
CCOc1ccc(CNS(=O)(=O)c2c(C(=O)N3CCCC3)c(C)n(C)c2C)cc1OC
→ -11%, -15%
CN(C)C(CNC(=S)Nc1cccc(Cl)c1)c1ccccc1 (stereo not given)
→ -8%, i
CCOC(=O)[C@]12CCCC=C1N(Cc1ccc(Cl)cc1Cl)C(=O)[C@H](CC(=O)NCc1cccs1)C2
→ -10%, 7%
CN(C)c1ccc(N=Cc2nc(-c3ccccc3)oc2OC(=O)c2cccc(Br)c2)cc1
→ -11%, -11%
CCOC(=O)c1c(NC(=O)Cn2nc(C(F)F)cc2C(F)F)sc(C)c1C
→ -21%, -6%
COc1ccc(Br)cc1CNC(=O)CSc1cc(=O)n(C)c2ccccc12
→ -4%, 3%
Cc1cc(=O)n(Cc2ccc(Cl)cc2)c2c1c(C)nn2-c1ccccc1
→ -9%, -17%
Cc1ccc(C)c(N2CCN(C(=O)c3ccc(NC4=NC5CS(=O)(=O)CC5S4)cc3)CC2)c1 (stereo not given)
→ -3%, -3%
Cc1cc(C)cc(NC(=S)N2CCC(NC(=O)C3CCCCC3)CC2)c1
→ -9%, -14%
O=C(CCN1C(=O)/C(=C/c2cccs2)SC1=S)Nc1ccccc1O
→ -6%, -10%
C=CCC[C@H](Cc1ccc(F)cc1)C(=O)OC[C@H](Cc1c[nH]c2ccccc12)NC(=O)[C@@H](CC=C)CC(=O)N(CCO)Cc1ccccc1
→ 11µM*, ?
COc1ccc(OC)c(NC(=O)C2(C)CCN2Cc2ccsc2)c1 (stereo not given)
→ -15%, -7%
COc1ccc(OC)c(C2C(C(=O)c3ccco3)=C(O)C(=O)N2CC2CCCO2)c1 (stereo not given)
→ -3%, -9%
Cn1c(-c2cnn(-c3ccccc3)c2-n2cccc2)n[nH]c1=S
→ -12%, i
CN(Cc1ccc(Br)cc1)CC(O)COc1cccc(Br)c1 (stereo not given)
→ -4%, -20%
COc1ccc(NC(=S)NCCC2=CCCCC2)cc1OC
→ -15%, -17%
Cn1c(=O)c2[nH]c(N=NNc3ccccc3F)nc2n(C)c1=O
→ 2%[7.34 µM], -13%[7.34 µM]
O=C(NCCCN1CCOCC1)c1csc2c1CCCC2
→ -7%, -6%
O=C(NNc1c2ccccc2nc2ccccc12)c1cccc(O)c1
→ ?, ?
CCOC(=O)C(C)Oc1cccc2c(=O)n(CC(=O)NCc3ccco3)ccc12 (stereo not given)
→ -21%, -12%
OC1CCNC(=S)N1c1ccccc1 (stereo not given)
→ -11%, i
O=S(=O)(N1CCCCC1)N1CCN(c2ccccc2F)CC1
→ -2%, i
COc1ccc(CC(=O)Nc2ccc(-c3nc4cc(C)ccc4o3)c(O)c2)cc1OC
→ -7%, nt
CCN1CCN(C(c2ccc(C)cc2)c2sc3nc(-c4ccco4)nn3c2O)CC1 (stereo not given)
→ -4%, -6%
CCCCc1ccc2[nH]cc(CCN)c2c1
→ ?, -21%
COc1cccc(NC(=O)CCc2nc(-c3ccccc3F)no2)c1
→ -15%, i
CCc1cccc(C)c1NC(=O)N(C)C1CCCCC1
→ -16%[7.34 µM], 0%[7.34 µM]
O=C(CCN1C(=O)c2ccccc2S1(=O)=O)Nc1ccc(Cl)cc1
→ -24%, -15%
CCOC(=O)C1CCN(C(=S)Nc2ccc(CC)cc2)CC1
→ -9%, 1%
O=C(CSc1ccc(-c2ccc(F)cc2)nn1)N1CCOCC1
→ -3%, i
O=C(NC1CCCC1)C(c1ccc(F)cc1)N(C(=O)c1csnn1)c1ccccc1 (stereo not given)
→ -4%, 2%
Cn1c(=O)[nH]c(=O)c2c1nc(N1CCCCC1)n2CCCSc1nnnn1-c1ccccc1
→ -13%, i
COCCn1c(=N)c(S(=O)(=O)c2ccc(F)cc2)cc2c(=O)n3ccccc3nc21
→ 0%[7.34 µM], 4%[7.34 µM]
O=C(c1ccc2c(c1)OCCO2)C1CCN(C(=O)Nc2ccc(F)cc2)CC1
→ -27%, -6%
CC1(C)OC(=O)N(CC(=O)Nc2cccc(C(F)(F)F)c2)C1(C)O (stereo not given)
→ -2%, -2%
Cc1ccc2nc(SCC(=O)NCC3Cc4cc(-c5ncccc5C)ccc4O3)[nH]c2c1 (stereo not given)
→ -17%, -22%
CCOC(=O)C1(C)CCCN1C(=O)c1c(F)cccc1F (stereo not given)
→ 7%, 34%[activator]
COc1ccc(C(=O)NNC(=O)CSc2nnc(COc3ccccc3OC)n2C)cc1
→ -19%, -15%
Cc1n[nH]c(=O)nc1NCCN(C)C
→ -2%, -11%
Cn1cc(/C=N\NC(=O)c2cccs2)c2ccccc21
→ 2%, i
